# High-throughput results deposited in PubChem BioAssay by National Center for Advancing Translational Sciences (NCATS).
# GLA inh pH 4.5: inhibitors of human alpha-galactosidase A at pH 4.5; P06280; activity change, negative = inhibition, % at 105 µM; 230,000 tested, under 10 active; purified enzyme, 4-MU-alpha-Gal fluorescence, pH 4.5; inconclusive = small, poorly fitted or top-dose-only inhibition, or a rising curve; inactive = flat fitted curve, though single readings scatter; no compound was filed as active;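 note: 0% = full activity with enzyme and -100% = basal without enzyme; dose as in the result columns while the protocol names 77 µM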
# Rango complex inh: prevents formation of the Rango-importin beta complex | Q14974 | Rango CFP/YFP FRET sensor + importin beta, 45 min | Potency, µM (highest dose often 92.2 µM), without a hit: at the highest dose inhibition of complex formation | 340,000 tested, 0.031% active | AID 540263; active = rising FRET ratio curve, often small or poorly fitted; inconclusive = mostly compound fluorescence or quenching in the first reads; inactive = flat curves in all reads;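 note: potency is the fitted concentration of half-maximal effect; 0% = DMSO wells and 100% = buffer wells lacking importin beta; nearly all actives have a fitted effect of over 15% in size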
# Target sequence (Q14974 whole entry, looked up): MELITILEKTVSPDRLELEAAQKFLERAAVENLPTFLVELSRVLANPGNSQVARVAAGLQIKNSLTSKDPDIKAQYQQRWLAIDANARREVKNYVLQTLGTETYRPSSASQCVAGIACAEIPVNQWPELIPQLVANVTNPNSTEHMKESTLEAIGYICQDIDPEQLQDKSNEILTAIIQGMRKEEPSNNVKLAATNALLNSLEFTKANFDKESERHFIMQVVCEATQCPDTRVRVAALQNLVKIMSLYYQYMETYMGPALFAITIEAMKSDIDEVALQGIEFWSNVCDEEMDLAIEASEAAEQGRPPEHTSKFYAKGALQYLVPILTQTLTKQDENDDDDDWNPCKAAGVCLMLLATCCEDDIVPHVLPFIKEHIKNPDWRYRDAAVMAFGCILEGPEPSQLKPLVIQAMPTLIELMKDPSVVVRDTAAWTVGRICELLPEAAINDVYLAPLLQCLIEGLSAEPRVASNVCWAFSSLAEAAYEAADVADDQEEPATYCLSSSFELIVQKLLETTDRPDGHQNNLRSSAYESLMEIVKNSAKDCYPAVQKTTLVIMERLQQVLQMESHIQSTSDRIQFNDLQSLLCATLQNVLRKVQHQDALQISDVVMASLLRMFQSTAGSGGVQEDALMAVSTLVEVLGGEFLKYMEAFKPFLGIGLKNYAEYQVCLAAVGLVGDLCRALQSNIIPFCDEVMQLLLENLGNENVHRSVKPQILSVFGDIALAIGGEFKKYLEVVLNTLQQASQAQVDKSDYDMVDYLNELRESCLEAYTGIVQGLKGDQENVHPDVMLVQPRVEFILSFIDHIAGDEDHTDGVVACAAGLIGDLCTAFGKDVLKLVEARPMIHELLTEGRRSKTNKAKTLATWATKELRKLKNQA
#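 FRET biosensor (snurportin 1 IBB flanked by EYFP and cerulean), 50 nM, with compound 5 min, then 0.125 microM importin beta in PBS, 1 mM DTT, 0.02% Tween-20, 0.1% BSA. CFP/YFP ratio read after 45 min at room temperature; pre-read flags interference.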
# miR-21 FLuc: miR-21 reporter, rising signal; HeLa miR-21 FLuc reporter, luciferase, 48 h; 340,000 tested, under 10 active; Potency, µM (titrated, usually from 38.3 µM), inactives show at the highest dose reporter change, positive = more light; active = well fitted rising curve with a large enough effect; inconclusive = small, poorly fitted or top-dose-only effect; inactive = no such curve, though single readings can be large or run the other way;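 note: % of control where 0% means no effect; miR-21 action dims this reporter so a rising signal means less miR-21 action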
#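 HeLa miR-21-FLuc reporter line, endogenous miR-21; 2000 cells/well in DMEM/10% FBS; compound titration up to ~40uM final, 48 h, 37 degree Celsius; luciferase detection reagent, 15 min lysis, CCD luminescence.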
# Rango release inh: inhibition of RanGTP-driven Rango-importin beta dissociation. O95149+P62826. Biochemical FRET Rango-importin beta, RanGTP-induced dissociation. Potency, µM (top dose mostly 46.1 µM), for the others: at the top dose activity change, negative = inhibition. 340,000 tested, 0.071% active; active means falling FRET ratio curve, often poorly fitted, with flat reads before Ran was added; inconclusive means other falling curves, or compound fluorescence or quenching; inactive means flat or rising ratio curve;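 note: potency is the fitted concentration of half-maximal effect; % of control where 0% means no effect; nearly all actives have a fitted effect of over 45% in size; -100% = wells without RanGTP and RCC1; the record marks most hits as doubtful in a second field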
#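 Recombinant Rango FRET biosensor (EYFP–snurportin 1 IBB–cerulean CFP10) at 0.1 uM premixed with 0.25 uM importin beta in PBS, 1 mM DTT, 0.02% Tween-20, 0.1% BSA. Compound added 5 min; RanGTP-RCC1 (0.6 uM Ran, 2 mM GTP, 0.2 uM RCC1) then triggers release, read at 45 min.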
# * hit, by the source's call; ? = inconclusive; nt = not tested or not shown; & = joins results of further samples. Some of the compounds tested (hit frequency here may not be typical).
Structure	GLA inh pH 4.5	Rango complex inh	miR-21 FLuc	Rango release inh
Cc1cc(C)c(O)c(-c2cc(C(=O)Nc3cccnc3)[nH]n2)c1	2	-0.4%	-8%	-10%
Cc1cccc(OCCSc2nc3ccccc3n2CC(=O)O)c1	nt	-0.4%	-5%	20%
CC1(OC(=O)c2ccc(Cl)nc2)C(=O)C=C2C=C3CCCN3C=C2C1=O (stereo not given)	0&-1	-7.1%	8%	-4%
C/C(=N\n1cnnc1)c1ccc(C#N)cc1	0	-1.0%	-1%	15%
CCN1/C(=C\C=C(C(C)=O)C(C)=O)Sc2ccccc21	-14	?	-35%	?
Cc1ccc(Cc2cnc(NC(=O)CN3CCOCC3)s2)cc1Cl	2	-0.2%	-1%	-2%
CC(OC(=O)c1ccco1)C(=O)Nc1ccc(Cl)cn1 (stereo not given)	5	-0.7%	0%	10%
O=C(c1cccnc1)N1CCN(S(=O)(=O)c2cccs2)CC1	nt	-0.1%	2%	-5%
Cc1nc(CS(=O)c2ccc(Cl)cc2)cc(NCc2ccc(Cl)cc2Cl)n1 (stereo not given)	0	0.3%	10%	18%
O=C(CC1S/C(=N/N=C2CCCCCC2)NC1=O)Nc1ccccc1F (stereo not given)	nt	3.1%	-3%	-13%
COc1ccc2c(c1)CCc1c(C(=O)N3CCCc4ccccc43)noc1-2	-6	3.3%	-27%	-1%
C/C(=N\NC(=S)NCCc1ccccc1)c1ccc(C)cc1	6	-0.1%	-2%	-5%
O=C(COC(=O)c1ccco1)NCc1ccc(Cl)cc1	-1	0.0%	0%	6%
Cc1ccc(-c2cc(-c3nnc(SCC(=O)NC(C)C(C)C)n3N)c3ccccc3n2)cc1 (stereo not given)	0	-2.2%	-1%	-12%
CCOCC(=O)Nc1c(C(=O)Nc2ccc3c(c2)OCO3)oc2ccccc12	nt	0.3%	-39%	-3%
Cn1c(=O)c2c(nc(NCC3CCCO3)n2Cc2cccc(Br)c2)n(C)c1=O (stereo not given)	-7	8.9%	-1%	-17%
COc1ccc(N2COC3c4cccc5cccc(c45)C32)cc1 (stereo not given)	-8	-2.7%	-8%	15%
N#CCC(N)=C(C#N)C#N	nt	-1.6%	0%	?
COc1ccc(CNC(=S)Nc2ccccc2C)cc1	-1	-0.7%	1%	-4%
COc1ccc(OC(=O)c2cc(S(=O)(=O)N3CCCC3)ccc2Cl)cc1	-4	2.2%	-2%	-11%
COc1ccc(-c2c(-c3ccc(OCC(=O)NN)cc3O)n[nH]c2C(F)(F)F)cc1	-1	0.1%	22%	-7%
COc1cccc(NC(=O)[C@@H]2CCCN2S(=O)(=O)c2cccc3cccnc23)c1	nt	-5.5%	nt	0%
CCOc1ccc(CCNC(=O)CS(=O)(=O)Cc2nc(-c3cccc(OC)c3)oc2C)cc1	nt	-1.9%	14%	2%
Cc1cc(=O)n(CC(=O)NCCN2CCOCC2)c2c1c(C)nn2-c1ccccc1	nt	-1.8%	-1%	-3%
CC(C)(C)CC(C)(C)NC1=CC(=O)OC12CCCCC2	3	-0.1%	-1%	-21%
COc1cc(CNC2CCCC2)cc(Br)c1OCC(=O)Nc1ccccc1C	6	0.2%	4%	0%
O=C(NCCS(=O)(=O)NCCCc1ccccc1)c1ccccc1	nt	-0.2%	nt	-4%
COc1ccccc1N1CCN(CCCN2C(=O)C3CCCN3C2=O)CC1 (stereo not given)	nt	2.2%	nt	-3%
COc1ccc(OC)c(-n2cnnn2)c1	-4	0.4%	-2%	0%
COc1ccc(C(=O)O)cc1S(=O)(=O)NC(C)(C)C	-20	3.1%	6%	32%
COc1cccc(-c2nnc(SCC(=O)Nc3ccc4c(c3)OCCO4)n2Cc2ccco2)c1	-10	?	0%	-6%
Cc1cccc(C(=O)NNC(=O)Nc2ccccc2)c1	2	-3.7%	-4%	-13%
CCc1nnc(NC(=O)CN2CCN(Cc3ccccc3Cl)CC2)s1	nt	0.1%	2%	20%
Cc1ccc(S(=O)(=O)N2CCN(C(=O)CSc3cc(C)ccc3C)CC2)c(C)c1	nt	?	6%	1%
Cc1sc2ncnc(NCCc3ccc(S(N)(=O)=O)cc3)c2c1C	-4	0.1%	15%	-8%
Cc1cc(C(=O)NCCc2ccc(Cl)cc2)c2ccccc2n1	nt	-0.3%	0%	-4%
CC(C)(C)C1=CC=C(C(C)(C)C)C(=O)C1=O	-2	nt	1%	nt
CN1CCN(NC(=O)c2cc(-c3ccc(Cl)s3)nc3ccccc23)CC1	nt	-1.0%	-2%	19%
Cc1ccc(C(=O)CC(=O)c2ccc(C(C)(C)C)cc2)cc1	-24	0.3%	-10%	11%
COc1ccc(S(=O)(=O)N2CCC(C(=O)N[C@@H](C)C(=O)NCc3ccc(F)cc3)CC2)cc1	nt	-5.2%	1%	-7%
CCOc1ccccc1CNC(=O)c1ccc(NC(=O)C2=C(C)OCCS2)cc1	nt	0.7%	-3%	12%
CN(C(=O)/C=C/c1cnc2ccccc2c1)C1CCCCC1	6	0.5%	-20%	-12%
Cc1ccc(S(=O)(=O)NCCC(=O)NNC(=O)c2ccccc2Cl)cc1C	nt	2.6%	nt	-1%
Cc1ccc(S(=O)(=O)C2(C(=O)Nc3cccnc3)CC2)cc1	10	?	-2%	4%
C=CCCO[C@@H]1O[C@@H](C)[C@H](O)C[C@H]1O	nt	-1.0%	nt	-14%
CCCOc1ccc(N2C(=O)CC(N3CCN(c4ccccc4F)CC3)C2=O)cc1 (stereo not given)	2	1.9%	-14%	-19%
CSc1c(C#N)c(N)nc2sc(C(=O)c3ccccc3)c(N)c12	-6	?	1%	-8%
N#Cc1c(NC(=O)CSc2ccccn2)oc(-c2ccccc2)c1-c1ccccc1	-2	?	0%	-12%
COc1cccc(-c2cc3c(=O)n(-c4ccccc4)c(=S)[nH]c3s2)c1	9	-0.2%	-24%	-1%
Cn1c(=O)c2c(nc(Br)n2CC(=O)C23CC4CC(CC(C4)C2)C3)n(C)c1=O	-8	3.1%	-9%	2%
COc1ccccc1CC(=O)O/N=C(\N)c1ccccn1	-10	-0.2%	-58%	1%
CC(C)N(C(=O)CSc1nnc(CNc2ccc(F)cc2)o1)C(C)C	2	-0.6%	-5%	0%
CC(C)(C)c1ccc2c(c1)OC(C(=O)N/N=C\c1ccccn1)CO2 (stereo not given)	0	3.9%	-4%	21%
O=C(O)c1cccc(Nc2ncnc3sccc23)c1	-3	?	-16%	-20%
C/C(CCC1CC(C)OC1=O)=N\NC(N)=O (stereo not given)	0	3.3%	-4%	7%
COc1ccc(CCNC(=O)CN(c2cc([N+](=O)[O-])ccc2OC)S(C)(=O)=O)cc1OC	1	5.6%	2%	-13%
CC1CN(S(=O)(=O)c2ccc(NC(=O)CCCN3C(=O)c4ccccc4C3=O)cc2)CC(C)O1 (stereo not given)	-21	-3.7%	-2%	-18%
Cc1ccc(-c2cc(C(=O)Nc3c(C)n(C)n(-c4ccccc4)c3=O)c3ccccc3n2)cc1	nt	4.7%	nt	-1%
O=c1ccncn1C1OC(CO)C(O)C1O (stereo not given)	nt	?	nt	2%
COc1ccc(C)cc1NS(=O)(=O)c1ccc(Cl)nc1	nt	0.3%	nt	-1%

# Compound profiles (already shown). Screens in order: GLA inh pH 4.5, Rango complex inh, miR-21 FLuc, Rango release inh
# Cc1ccc(S(=O)(=O)N2CCN(C(=O)CSc3cc(C)ccc3C)CC2)c(C)c1 as listed: nt, ?, 6%, 1%
# CCOc1ccc(CCNC(=O)CS(=O)(=O)Cc2nc(-c3cccc(OC)c3)oc2C)cc1 as listed: nt, -1.9%, 14%, 2%
# Cn1c(=O)c2c(nc(Br)n2CC(=O)C23CC4CC(CC(C4)C2)C3)n(C)c1=O as listed: -8, 3.1%, -9%, 2%
# O=c1ccncn1C1OC(CO)C(O)C1O (stereo not given) as listed: nt, ?, nt, 2%
# Cc1ccc(-c2cc(-c3nnc(SCC(=O)NC(C)C(C)C)n3N)c3ccccc3n2)cc1 (stereo not given) as listed: 0, -2.2%, -1%, -12%

# (more compounds)
# The line under a structure holds: GLA inh pH 4.5 | Rango complex inh | miR-21 FLuc | Rango release inh
N/C(=N\OC(=O)CCCc1ccccc1)c1ccc(Br)cc1
 : nt | -0.2% | -11% | 5%
COc1ccc(C)cc1NC(=O)c1sc2ncnc(N3CCN(c4ccccn4)CC3)c2c1C
 : nt | -2.1% | 1% | 15%
COc1ccc(/C(C)=N/N2CCCCC2)c(O)c1
 : nt | 3.2% | -6% | -5%
O=C(Cc1noc2ccccc12)NNC(=S)Nc1ccc(Cl)cc1
 : -4 | -0.5% | 3% | -10%
COCC(=O)Nc1ccc(N(C)C)cc1
 : -8 | ? | -26% | -6%
Cc1cccc(N(CC(=O)NCCSCc2ccco2)S(=O)(=O)c2ccccc2)c1
 : -4 | 1.0% | -1% | 0%
COc1ccccc1C(=O)N1CCc2ccccc21
 : 8 | 1.7% | -2% | 19%
O=C(CSc1cccc[n+]1[O-])c1cc(Cl)ccc1Cl
 : 2 | 3.0% | -17% | 25%
O=[N+]([O-])c1c(C(Cl)Cl)nn(-c2ccc(Cl)cc2)c1N1CCCCC1
 : -1 | 4.8% | -9% | 18%
O=C(Nc1cccc(Br)c1)c1ccc(Cl)c(S(=O)(=O)N2CCOCC2)c1
 : -25 | -4.2% | ? | 24%
Cc1cc(C)c(OCCN(C)C)c(Cl)c1
 : -4 | -0.9% | 0% | 5%
O=C(Nc1ccc(N2CCCC2)c(Cl)c1)c1cccs1
 : 1 | -3.4% | -40% | 2%
O=C(Nc1ccc(Cl)cc1F)c1ccccc1Br
 : 6 | 2.7% | -56% | -8%
Cc1ccc2cn[nH]c2c1NC(=S)NC(=O)c1ccccc1
 : 3 | -0.9% | 4% | 7%
COc1ccccc1/C=C/C(=O)NCCc1ccccn1
 : nt | -2.5% | -36% | -6%
COc1cccc(CNC(=O)c2nnn(CC(=O)Nc3c(C)cccc3C)c2N)c1
 : nt | 0.8% | -11% | 2%
NS(=O)(=O)OCCCCCc1ccccc1
 : nt | 1.1% | -7% | 14%
COc1ccccc1N(CC(=O)Nc1ccccc1C(=O)N1CCOCC1)S(C)(=O)=O
 : nt | -0.6% | -2% | -1%
Cc1occc1-c1nnc(SCC(=O)N2c3ccccc3CCc3ccccc32)n1C
 : -7 | 0.6% | 0% | -1%
CC(NS(C)(=O)=O)C(c1cccs1)N1CCN(c2ccc(F)cc2)CC1 (stereo not given)
 : 0 | -1.3% | -7% | -9%
COc1ccc(S(=O)(=O)N(C)C)cc1NC(=O)COC(=O)c1nn(C)c(=O)c2ccccc12
 : 4 | -1.1% | 0% | 2%
O=C(c1n[nH]c2c1CCC2)N1CCCC(Nc2cccc(F)c2)C1 (stereo not given)
 : nt | -3.5% | -12% | -6%
O=C1/C(=C/c2cccnc2)SC(=S)N1N1CCOCC1
 : 1 | -0.8% | 1% | 9%
CC1CN(c2snnc2C=C2C(=O)OC(C)(C)OC2=O)CC(C)O1 (stereo not given)
 : 3 | -1.3% | -2% | -9%
Cc1nnc(NS(=O)(=O)c2ccc(F)cc2)s1
 : nt | -4.3% | nt | -3%
CCOC(=O)C1=C(C)Nc2ccccc2N/C1=N\S(=O)(=O)c1cc(C(=O)O)ccc1Cl
 : nt | 0.3% | nt | -8%
O=C(C1CCCN1C(=O)c1cccs1)N1CCN(S(=O)(=O)c2ccc(F)cc2)CC1 (stereo not given)
 : nt | -1.5% | nt | 18%
Cn1c(=O)c2c(nc3n2CC(CO)O3)n(C)c1=O (stereo not given)
 : nt | -1.6% | 0% | 0%
O=C1N/C(=N/N=C/c2ccccc2O)SC1Cc1ccc(F)cc1 (stereo not given)
 : -3 | -0.6% | -1% | 1%
COc1cccc(C2=CC(=O)CC(C)(C)C2)c1
 : nt | -2.5% | nt | 5%
